Screening results from PubChem BioAssay.
MbtI inh: blocks the Mycobacterium tuberculosis siderophore enzyme MbtI. actives 0.89% (n = 100,000). AID 493033. purified MbtI enzyme, fluorescence intensity read-out. inhibition, %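 (about 17 µg/mL by stock and volumes)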;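 active = above 50% in both replicates, above 80% if mildly self-fluorescent; inactive = the rest, strongly fluorescent compounds included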;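 note: 0% = mean of negative and 100% = mean of positive controls; one replicate is shown; some compounds called inactive have numbers as strong as hits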
Target sequence (P9WFX0 whole entry, looked up): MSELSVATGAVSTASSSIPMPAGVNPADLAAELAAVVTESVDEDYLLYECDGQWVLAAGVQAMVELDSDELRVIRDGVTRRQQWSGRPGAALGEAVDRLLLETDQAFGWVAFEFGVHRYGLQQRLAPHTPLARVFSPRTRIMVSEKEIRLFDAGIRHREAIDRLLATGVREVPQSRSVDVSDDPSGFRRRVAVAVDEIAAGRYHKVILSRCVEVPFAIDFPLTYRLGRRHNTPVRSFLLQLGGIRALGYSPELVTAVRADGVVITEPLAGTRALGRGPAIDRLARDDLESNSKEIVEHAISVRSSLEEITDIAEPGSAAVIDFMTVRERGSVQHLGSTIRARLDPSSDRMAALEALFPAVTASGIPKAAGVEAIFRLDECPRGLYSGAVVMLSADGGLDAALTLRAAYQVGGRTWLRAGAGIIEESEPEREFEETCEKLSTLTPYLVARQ
MenB inh: inhibitors of Mycobacterium tuberculosis MenB enzyme. P9WNP5. inhibition, %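 (about 12 µg/mL by stock and volumes)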. MenB enzyme assay, absorbance read-out; some hits fall short of the stated cut. AID 540299. actives 0.43% (n = 100,000);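 active = mean of two replicates above 30%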;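 note: 0% = no compound and 100% = wells with inactive enzyme; the first replicate is given; strong numbers were not always called active; inactives centre near -10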
Polio RdRp inh: poliovirus RNA polymerase inhibition; poliovirus polymerase elongation, fluorescence polarization; active compounds read low; P03300; % elongation, % (compound at 16.7 µg/mL); actives 0.66% (n = 150,000); in the data active = % elongation below about 90%; note: some results filed as inactive read as strong as hits
Target sequence (P03300 1749-2209 limits assumed): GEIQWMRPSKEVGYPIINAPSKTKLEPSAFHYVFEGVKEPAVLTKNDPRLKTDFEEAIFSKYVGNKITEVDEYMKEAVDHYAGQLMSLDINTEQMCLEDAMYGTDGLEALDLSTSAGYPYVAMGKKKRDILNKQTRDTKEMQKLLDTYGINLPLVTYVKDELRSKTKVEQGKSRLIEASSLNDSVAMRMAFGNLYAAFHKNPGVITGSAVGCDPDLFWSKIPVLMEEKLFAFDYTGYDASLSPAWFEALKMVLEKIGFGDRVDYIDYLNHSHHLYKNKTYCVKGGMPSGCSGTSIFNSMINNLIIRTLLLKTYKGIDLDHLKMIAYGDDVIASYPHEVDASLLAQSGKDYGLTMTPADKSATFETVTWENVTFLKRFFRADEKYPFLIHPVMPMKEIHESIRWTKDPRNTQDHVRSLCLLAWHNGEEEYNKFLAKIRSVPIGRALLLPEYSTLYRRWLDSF
Polio RdRp inh intensity: also measured in Polio RdRp inh; calls as there; % elongation; measured here: total intensity read-out; formula for this scale not given here;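 total fluorescence in place of polarization; lower means less elongation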
Numbers without * were called inactive; . = not tested or not shown; & = joins results of further samples; ! = a repeat was not active.

Every second line gives: MbtI inh	MenB inh	Polio RdRp inh	Polio RdRp inh intensity
- O=C(c1ccccc1)c1nnc(-c2ccccc2)s1
    -16	.	102	107
- C=CCNC(=S)N1CCN(C(=S)NCC=C)CC1
    1	10	101	105
- O=C(NC1CCCC1)C(c1ccccc1)N(CC1CCCO1)C(=O)Cn1nnc2ccccc21 (stereo not given)
    -19	19	102	101
- COc1ccc(NC(C)=O)cc1NC(=O)c1cc2cccnc2n(C)c1=O
    -4	-27	111	119
- O=C(COc1ccc(Cl)cc1)NC1CN2CCC1CC2 (stereo not given)
    -1	-10	104	104
- O=C(c1ccco1)N1CCCN(C(=O)c2ccco2)CC1
    2	-3	100	103
- Cc1ccc(Cn2nnc3c(=O)n(Cc4ccc(C(F)(F)F)cc4)cnc32)cc1
    15	-8	103	102
- Cc1cnc(NC(=O)c2ccc(OCC3CCCO3)cc2)s1 (stereo not given)
    17	5	103	102
- O=C(OCc1cc(=O)n2ccsc2n1)C1(c2ccccc2)CC1
    -6	-2	104	107
- O=C(O)C(CO)N=Cc1c(O)c2ccccc2oc1=O (stereo not given)
    11	0	102	103

Every second line gives: MbtI inh	MenB inh	Polio RdRp inh	Polio RdRp inh intensity
- Cc1ccc(S(=O)(=O)NC(c2ccccc2)c2nnc(-c3ccccc3)o2)cc1 (stereo not given)
    2	-14	101	101
- O=C(c1ccc2c(=O)n3c(nc2c1)CCCCC3)N1CCCc2ccccc21
    2	3	103	103
- Cc1cccc(N(Cc2ccccc2)C(=O)CSc2nc(N)nc(N)n2)c1
    -14	-20	101	103
- CCN1C(=O)/C(=C\C=C2/N(CC)c3ccc(C(=O)OC)cc3N2CC)SC1=S
    10	-28	82	197
- CCOC(=O)c1sc(N)c(C#N)c1COC(=O)c1ccc2c(=O)n3c(nc2c1)CCC3
    -37	-18	45	239
- COc1ccc2c(c1)c(C(=O)OCC(N)=O)c(C)n2C1CCCCC1
    -65	-7	100	107
- CCOc1ccc(C(=O)NCC(=O)N2CCCC2)cc1
    -2	-9	108	112
- Cc1cc(Oc2ccccc2F)nc(N)n1
    0	19	99	102
- Oc1ccc(C=Nc2ccc(N3CCOCC3)cc2)cc1O
    .	6	113	115
- NC(=O)N/N=C/c1cccn1-c1ccc(C(F)(F)F)cc1
    -11	5	103	105

Every second line gives: MbtI inh	MenB inh	Polio RdRp inh	Polio RdRp inh intensity
- CN(C)c1ccc(/C=N/n2ncc3ccccc32)cc1
    -24	-22	115	136
- O=C1c2ccccc2-c2cccc(C(=O)N3CCCCC3)c21
    5	-16	101	101
- CC1CCCC(C)N1C(=O)COC(=O)c1ccc(Cl)cc1Cl (stereo not given)
    -9	.	102	97
- CC(=O)Nc1cccc(-n2nnc(SCC(=O)c3ccc4c(c3)OCCCO4)n2)c1
    -6	1	103	106
- COc1ccc(S(=O)(=O)N(CC(=O)Nc2ccc3c(c2)OCCO3)c2ccccc2)cc1OC
    -15	0	100	104
- Cc1cc(OCC(=O)N(C)C)c2c3c(c(=O)oc2c1)CCCC3
    38	7	101	98
- CCOc1ccc(C(=O)NC2CCN(C(=O)NCc3ccccc3)CC2)cc1
    -7	-28	101	101
- Cn1c(C(=O)N/N=C/c2cccs2)cnc1SCc1ccc(Cl)cc1
    1	-19	102	103
- COc1ccc(CC(=O)Nc2ccc(-c3cnco3)cc2)cc1OC
    -10	-7	105	113
- CCOC(=O)c1cc(C(=O)OC)c(C)nc1N1CCCN(Cc2ccc(F)cc2)CC1
    28	-13	103	110

Every second line gives: MbtI inh	MenB inh	Polio RdRp inh	Polio RdRp inh intensity
- CCc1ccccc1NC(=O)C(C(C)C)N1C(=O)c2ccccc2C1=O (stereo not given)
    .	-8	101	102
- CC1=CS/C(=C(/C#N)c2nnc(N3CCOCC3)n2-c2ccccc2)N1c1ccc(OC(F)F)cc1
    4	-7	105	103
- CC(Oc1ccc(Cl)cc1Cl)/C(N)=N/O (stereo not given)
    -1	15	101	99
- CCC1CCCCN1C(=O)CNc1ccc(C)cc1Cl (stereo not given)
    -5	.	101	95
- CCCn1c(NC(=O)CCCc2nc3ccccc3c(=O)[nH]2)nc2ccccc21
    -5	-14	101	102
- CC(=O)Nc1ccccc1NC(=O)c1ccccc1
    -4	-8	101	104
- N#Cc1ccccc1CS(=O)(=O)c1nc2ncccc2[nH]1
    .	1	103	103
- CCN(Cc1ccncc1)C(=O)c1cccc(C(F)(F)F)c1
    -25	-22	103	103
- O=C(O)c1ccc(NC(=O)c2ccc3c(c2)C(=O)N(Cc2ccco2)C3=O)cc1
    17	10	98	101
- O=C1N/C(=N\S(=O)(=O)c2ccccc2)S/C1=C/c1ccco1
    46	-120	100	103

Every second line gives: MbtI inh	MenB inh	Polio RdRp inh	Polio RdRp inh intensity
- O=C1c2ccccc2C(O)(c2ncc[nH]2)N1CCc1ccccc1 (stereo not given)
    -10	-7	100	102
- CC1(C)CC(=O)C2=C(C1)Nc1ccccc1S2
    4	-173	94	115
- CC(C(=O)c1ccc(Cl)cc1Cl)n1cncn1 (stereo not given)
    6	-26	101	99
- COC(=O)c1ccccc1S(=O)(=O)C(C)(C)C
    .	-2	102	110
- Cc1cc(O)ccc1Sc1ccc(O)cc1C
    .	-11	102	109
- CN1C(=O)c2ccccc2C(C(=O)N2CCCCCC2)C1c1c[nH]c2ccccc12 (stereo not given)
    -3	2	99	105
- Cc1cc(-c2csc(-c3ccccc3)n2)c(C)n1-c1nccs1
    -6	-41	111	114
- Cc1cc(OCC(=O)NC2CCCC(C)C2C)c2c3c(c(=O)oc2c1)CCCC3 (stereo not given)
    -20	.	102	101
- COc1ccc(OC)c(NC(=O)CSc2nc3c(c(=O)n2Cc2ccccc2)SC(C)C3)c1 (stereo not given)
    7	-5	99	103
- O=C(/C=C/C(=O)N1c2ccccc2Sc2ccccc21)c1ccccc1
    .	-11	106	108

Every second line gives: MbtI inh	MenB inh	Polio RdRp inh	Polio RdRp inh intensity
- O=C(C[n+]1cccc(/C=N/O)c1)NC12CC3CC(CC(C3)C1)C2
    3	4	105	106
- CCc1ccc(S(=O)(=O)Nc2c(C)nc3nc[nH]n3c2=O)cc1
    4	0	99	101
- COc1ccc(CCC(C)N2CCN(c3cc(C)ccc3C)CC2)cc1 (stereo not given)
    -8	2	98	102
- CNC(=S)N1CCc2sccc2C1c1ccc(Cl)cc1 (stereo not given)
    -10	-5	102	113
- CN[C@@H]1[C@H](OC2[C@H](O[C@H]3[C@H](O)[C@@H](O)[C@H](N=C(N)N)[C@@H](O)[C@@H]3N=C(N)N)O[C@@H](C)[C@]2(O)C=O)O[C@@H](CO)[C@H](O)[C@H]1O (stereo not given in full)
    -5	7	100	98
- COc1ccccc1C(=O)NC(C(C)C)C(C)C
    -6	-9	99	103
- CC1CCCc2c1nc(N)c(C#N)c2-c1ccccc1 (stereo not given)
    -352	4	103	105
- Cc1ccc2onc(CNC(=O)NC3CCCC3)c2c1
    -17	-18	103	104
- O=C(c1cnn(-c2ccccc2)c1-n1cccc1)N1CCC(Cc2ccccc2)CC1
    -4	-9	100	103
- CCS(=O)(=O)N(Cc1ccco1)Cc1nc(-c2cccs2)no1
    -3	-54	99	102

Every second line gives: MbtI inh	MenB inh	Polio RdRp inh	Polio RdRp inh intensity
- CCOC(=O)N1CCN(C(=O)CCn2c(=S)[nH]c3ccsc3c2=O)CC1
    -8	-19	102	103
- CC1(C)N=C(N)NC(Nc2ccccc2Br)=N1
    -4	-6	103	106
- Cc1ccccc1CN1C(=O)C(O)(CC(=O)/C=C\c2ccccc2)c2ccccc21 (stereo not given)
    10	-26	104	102
- CC(C)(C)N1Sc2ccccc2NC1=S
    90*!	-6&-34	98&104	101&101
- O=C(NCCc1c[nH]c2ccccc12)c1ccc(S(=O)(=O)N2CCCCC2)cc1
    -18	.	101	97
- COc1ccc(C(=O)NC2=NCCS2)cc1S(=O)(=O)N1CCCCC1C (stereo not given)
    1	-19	100	106
- Cc1cccc(C(=O)OCC(=O)N2CC(C)CC(C)C2)c1O (stereo not given)
    -3	.	101	91
- CC(C)n1c2ccc(Br)cc2c2nc3ccccc3nc21
    8	-2	102	105
- CCc1cc2c(=O)c3c(cn4ccccc34)oc2cc1OC(C)=O
    .	-22	110	112
- CCn1nnnc1SCC(=O)c1ccc(NC(C)=O)cc1
    6	-3	102	103

Given as comma-separated lines: part of the list above.
Molecule,MbtI inh,MenB inh,Polio RdRp inh,Polio RdRp inh intensity
Cc1cc(-c2csc(-c3ccccc3)n2)c(C)n1-c1nccs1,-6,-41,111,114
Cc1cc(OCC(=O)NC2CCCC(C)C2C)c2c3c(c(=O)oc2c1)CCCC3 (stereo not given),-20,.,102,101
COc1ccc(OC)c(NC(=O)CSc2nc3c(c(=O)n2Cc2ccccc2)SC(C)C3)c1 (stereo not given),7,-5,99,103
O=C(/C=C/C(=O)N1c2ccccc2Sc2ccccc21)c1ccccc1,.,-11,106,108
O=C(C[n+]1cccc(/C=N/O)c1)NC12CC3CC(CC(C3)C1)C2,3,4,105,106
CCc1ccc(S(=O)(=O)Nc2c(C)nc3nc[nH]n3c2=O)cc1,4,0,99,101
COc1ccc(CCC(C)N2CCN(c3cc(C)ccc3C)CC2)cc1 (stereo not given),-8,2,98,102
CNC(=S)N1CCc2sccc2C1c1ccc(Cl)cc1 (stereo not given),-10,-5,102,113
CN[C@@H]1[C@H](OC2[C@H](O[C@H]3[C@H](O)[C@@H](O)[C@H](N=C(N)N)[C@@H](O)[C@@H]3N=C(N)N)O[C@@H](C)[C@]2(O)C=O)O[C@@H](CO)[C@H](O)[C@H]1O (stereo not given in full),-5,7,100,98
COc1ccccc1C(=O)NC(C(C)C)C(C)C,-6,-9,99,103
CC1CCCc2c1nc(N)c(C#N)c2-c1ccccc1 (stereo not given),-352,4,103,105
Cc1ccc2onc(CNC(=O)NC3CCCC3)c2c1,-17,-18,103,104
O=C(c1cnn(-c2ccccc2)c1-n1cccc1)N1CCC(Cc2ccccc2)CC1,-4,-9,100,103
CCS(=O)(=O)N(Cc1ccco1)Cc1nc(-c2cccs2)no1,-3,-54,99,102
CCOC(=O)N1CCN(C(=O)CCn2c(=S)[nH]c3ccsc3c2=O)CC1,-8,-19,102,103
CC1(C)N=C(N)NC(Nc2ccccc2Br)=N1,-4,-6,103,106
Cc1ccccc1CN1C(=O)C(O)(CC(=O)/C=C\c2ccccc2)c2ccccc21 (stereo not given),10,-26,104,102
CC(C)(C)N1Sc2ccccc2NC1=S,90*!,-6&-34,98&104,101&101
O=C(NCCc1c[nH]c2ccccc12)c1ccc(S(=O)(=O)N2CCCCC2)cc1,-18,.,101,97
COc1ccc(C(=O)NC2=NCCS2)cc1S(=O)(=O)N1CCCCC1C (stereo not given),1,-19,100,106
Cc1cccc(C(=O)OCC(=O)N2CC(C)CC(C)C2)c1O (stereo not given),-3,.,101,91
CC(C)n1c2ccc(Br)cc2c2nc3ccccc3nc21,8,-2,102,105
CCc1cc2c(=O)c3c(cn4ccccc34)oc2cc1OC(C)=O,.,-22,110,112
CCn1nnnc1SCC(=O)c1ccc(NC(C)=O)cc1,6,-3,102,103

Grouped by structure, the compounds so far containing a CF3 group
Every second line gives: MbtI inh	MenB inh	Polio RdRp inh	Polio RdRp inh intensity
- Cc1ccc(Cn2nnc3c(=O)n(Cc4ccc(C(F)(F)F)cc4)cnc32)cc1
    15	-8	103	102
- NC(=O)N/N=C/c1cccn1-c1ccc(C(F)(F)F)cc1
    -11	5	103	105
- CCN(Cc1ccncc1)C(=O)c1cccc(C(F)(F)F)c1
    -25	-22	103	103

New compounds follow.
Every second line gives: MbtI inh	MenB inh	Polio RdRp inh	Polio RdRp inh intensity
- Cn1c(=O)c(/C(N)=N/OC(=O)c2ccccc2)cn(-c2ccccc2)c1=O
    -4	14	104	103
- OCC(C#CCN1CCCCC1)NCc1ccccc1 (stereo not given)
    .	-3	105	108
- Cc1nc(C(F)(F)F)ccc1C(=O)NCC1CC1
    -7	-1	100	103
- CN(CC(=O)NCc1ccccn1)S(=O)(=O)c1cc(Br)cnc1N
    -2	-25	103	109
- O=c1cc(Nc2ccc3c(c2)OCO3)[nH]c(=O)n1-c1ccc(Br)cc1
    7	-33	103	106
- COc1ccc(S(=O)(=O)Nc2ccccc2C(=O)NCc2ccco2)cc1
    122	4	105	112
- Cc1cc2ncc(C(=O)/C=C/N(C)C)c(C)n2n1
    21	-70	95	96
- O=S1(=O)CCC(N=Nc2c(O)n(Cc3ccccc3)c3ccccc23)C1 (stereo not given)
    -2	-50	103	96
- O=S(=O)(Nc1cccc(C2OCCCO2)c1)c1ccccc1
    .	-7	102	101

Rows are unselected; 1.9% or so of the library scored in one or more.
